HNF4A DNA FP: change in binding of human HNF4 alpha to DNA; HNF4a-FITC DNA binding, fluorescence polarization, 1 h; activity change, % at 10 µM; 360,000 compounds, 0.3% hits; in the data active = activity change above about 30%, passing the limit was not always enough;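 also: controls were the assay level and a saturating level of protein; the project sought stronger binding though the title names inhibitors; some compounds called inactive have numbers as strong as hits; positive values seem to mean higher polarization but the record does not say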
RanGTP-Imp inh: disruptors of Ran-importin-beta complex formation – biochemical, FRET, CFP-Ran, YFP-importin-beta, homogeneous, primary screen; cell-free CFP-Ran/YFP-importin-beta FRET ratio; inhibition, % (no concentration beside the values); 300,000 compounds, 1.1% hits; AID 2216;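 active = most replicates above 15%; inconclusive = exactly half above 15%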;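 also: 0% = DMSO wells and 100% = Ran loaded with GDP instead of GTP; wells of about 40 µL received 100 nL stock; the first replicate is given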
UCH37 inh: human UCH37 deubiquitinating enzyme inhibition; Q9Y5K5; purified proteasome/UCH37, Ub-AMC cleavage fluorescence; inhibition, % (no concentration beside the values); 330,000 compounds, 0.33% hits; AID 588478;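 active = mean of two replicates above 20%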;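 also: 0% = compound-free wells with enzyme and 100% = wells lacking proteasome; stock transfer was 100 nL into about 20 µL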
Target sequence (Q9Y5K5 whole entry, looked up): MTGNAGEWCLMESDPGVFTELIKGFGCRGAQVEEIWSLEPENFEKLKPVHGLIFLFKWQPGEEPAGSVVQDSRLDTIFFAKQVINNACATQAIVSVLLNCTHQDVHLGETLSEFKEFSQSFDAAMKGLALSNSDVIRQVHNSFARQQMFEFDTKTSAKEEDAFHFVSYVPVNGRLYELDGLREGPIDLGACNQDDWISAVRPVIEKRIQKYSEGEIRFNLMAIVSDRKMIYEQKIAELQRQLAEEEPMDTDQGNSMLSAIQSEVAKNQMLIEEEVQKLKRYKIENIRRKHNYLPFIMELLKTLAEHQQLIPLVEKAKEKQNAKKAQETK
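Material: human UCH37 enzyme supplied as purified proteasome complex / Amount: 0.15 nM proteasome as dispensed / Buffer or medium: pH 7.4 Tris-HCl (50 mM) with ovalbumin, ATP-MgCl2, DTT / Times: preincubation 30 min, reaction 25 min, room temperature / Technique: AMC fluorescence from Ub-AMC cleavage, excitation 355 nm, emission 460 nm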
Vif A3G: HIV-1 Vif–A3G interaction blockers – biochemical, TR-FRET, GST-Vif 1-94, biotin-A3G peptide, dose response retest, primary screen (AID 1117319); TR-FRET GST-Vif / biotin-A3G peptide binding; higher % means a stronger effect; test concentration not given here; strong numbers were not always called active; inhibition, %, or IC50 in µM where a hit was titrated; 260,000 compounds, 0.57% hits;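 active = above the screen mean plus three standard deviations and confirmed in dose response; inconclusive = results disagree or hit not tested in dose response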;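 also: Vif residues 1-94 fused to GST binding biotinylated APOBEC3G peptide 110-148; 0% = full assay without inhibitor and 100% = GST in place of GST-Vif; retest series ran down from 100 µM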
FGF22 binding: shifts melting point of recombinant human FGF22. calls only at 9.99 µM. Q9HCT0. recombinant FGF22 thermal shift, SYPRO orange fluorescence; percent of sucrose octasulfate shift, DMSO zero. 340,000 compounds, 1.5% hits;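 active = melting point raised past a set limit in the mean and every replicate; inconclusive = no clear call; three in four hits are not shown here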
Target sequence (Q9HCT0 whole entry, looked up): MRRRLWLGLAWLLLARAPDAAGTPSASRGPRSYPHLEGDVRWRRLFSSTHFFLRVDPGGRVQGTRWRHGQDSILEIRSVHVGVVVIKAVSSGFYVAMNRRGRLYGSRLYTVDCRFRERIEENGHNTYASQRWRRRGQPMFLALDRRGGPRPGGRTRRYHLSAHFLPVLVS
MLL AF4-AF9 inh: inhibitors of human MLL-AF4/AF9 interaction; AID 651704; P42568; 350,000 compounds, 0.47% hits; AlphaScreen, biotin-AF4 peptide binding to FLAG-AF9; inhibition, % at 10 µM;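 active = every replicate reaching a set inhibition limit, whatever the replicate mean, cut at about 25% in these data; inconclusive = mean inhibition reaches that limit but some replicates miss it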;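 also: 0% = plate neutral control median and 100% = total signal loss; the record names both 10 and 1 µM as test concentration; the first replicate is given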
Target sequence (P42568 whole entry, looked up): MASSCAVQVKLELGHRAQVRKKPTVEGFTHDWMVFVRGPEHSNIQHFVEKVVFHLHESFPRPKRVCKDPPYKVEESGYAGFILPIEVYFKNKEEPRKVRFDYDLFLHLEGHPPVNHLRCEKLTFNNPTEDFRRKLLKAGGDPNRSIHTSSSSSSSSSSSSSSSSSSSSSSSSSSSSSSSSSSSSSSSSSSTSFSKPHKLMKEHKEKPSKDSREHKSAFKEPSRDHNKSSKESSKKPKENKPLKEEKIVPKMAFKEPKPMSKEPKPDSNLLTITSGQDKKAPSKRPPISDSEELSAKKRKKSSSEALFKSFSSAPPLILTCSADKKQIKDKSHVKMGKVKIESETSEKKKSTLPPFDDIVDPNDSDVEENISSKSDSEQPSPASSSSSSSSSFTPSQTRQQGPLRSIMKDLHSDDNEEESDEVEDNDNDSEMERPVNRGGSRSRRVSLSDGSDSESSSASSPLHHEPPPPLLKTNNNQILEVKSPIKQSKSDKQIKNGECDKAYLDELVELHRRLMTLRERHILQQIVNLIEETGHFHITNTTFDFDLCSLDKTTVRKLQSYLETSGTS
E coli growth: inhibitors of Escherichia coli growth; OD600, 23 h; hits give low values; 330,000 compounds, 0.21% hits; OD600 absorbance (no concentration beside the values);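 active = OD600 absorbance below the run mean of sample wells minus 3.6 SD, in any replicate, cut at about 0.56 in these data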;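 also: stock transfer was 300 nL into about 60 µL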
* hit, by the source's call; i = inactive; ? = inconclusive; . = no result given. This is a subset; the hit share may differ from the screen's.

SMILES	HNF4A DNA FP	RanGTP-Imp inh	UCH37 inh	Vif A3G	FGF22 binding	MLL AF4-AF9 inh	E coli growth
Cc1ccc(S(=O)(=O)NCC2(c3ccccc3)CCOCC2)cc1	7.4	-3.8	-1.6	15%	i	-1.4	0.65
O=C(Cn1ccc([N+](=O)[O-])n1)NCc1nc2ccccc2[nH]1	-0.2	-4.2	0.5	12%	i	-1.6	0.72
CCOC(=O)C(NCCc1ccc(F)cc1)(NC(=O)CC)C(F)(F)F (stereo unspecified)	-2.3	-0.7	3.4	0%	i	-0.9	0.69
Cn1cc(/C=C/C(=O)N2CCCC(C(=O)c3ccc(C(C)(C)C)cc3)C2)cn1 (stereo unspecified)	-2.9	-0.6	2.2	.	i	0.1	0.71
CCCNC(=O)C(Cc1ccc(Cl)cc1)NC(=O)c1ccc(-c2ccccc2)cc1 (stereo unspecified)	0.4	.	1.8	.	i	1.7	0.71
Cc1ccc(-n2c(=O)[nH]c3ncccc3c2=O)cc1	1.4	3.5	-33	.	i	-2.1	0.62
CNS(=O)(=O)c1cccc(C(=O)OCc2csc(-c3ccccc3)n2)c1	-1.2	3.6	0.3	-1%	.	.	0.65
CCOC(=O)C1=C(N)N(c2ccc(C)cc2)C2=C(C(=O)CCC2)C1c1cccs1 (stereo unspecified)	2.6	1.1	-3.8	.	i	4.4	0.71
COCCN1Cc2cccc(C(=O)Nc3ccc(C)c(C)c3)c2C1=O	0.2	0.3	-0.3	-3%	.	.	0.7
Cn1ccc(=S)c2ccccc21	0.6	4.8	6.4	?	i	0.8	0.67
Cn1cccc1/C=N/n1c(-c2ccc(Cl)cc2)n[nH]c1=S	-0.3	18	.	0%	.	.	.
Cc1ccccc1C(=O)Nc1cccc(C(=O)N/N=C/c2cc(Cl)cc([N+](=O)[O-])c2O)c1	1.8	0.8	.	.	i	4.2	.
CC1(C(=O)NCc2ccccc2)CSCC(=O)N1CCc1c[nH]c2ccccc12 (stereo unspecified)	10	.	.	.	i	5.1	.
COCCNC(=O)CN(C(=O)CCC(=O)Nc1ccccn1)c1ccc(F)c(Cl)c1	-0.2	-0.1	1.5	-2%	.	.	0.78
Cc1ccc(S(=O)(=O)NCCCCCCNS(=O)(=O)c2ccc(C)cc2)cc1	1.1	.	.	-6%	i	-0.5	.
CC(=O)OC(=C(OC(C)=O)c1ccccc1)c1ccccc1	2.0	.	0.1	-2%	.	-0.7	0.69
CC(C(=O)Nc1ccccc1-c1ccccc1)N1CCN(C(=O)c2ccccc2)CC1 (stereo unspecified)	2.7	6.3	2.8	2%	i	1.4	0.69
Cc1ccc(C)n1-c1sc2c(c1C(=O)O)CCCC2	-42	0.3	3.9	?	i	-1.3	0.68
Oc1cccc2c3c(oc12)CCCC3	3.2	0.0	6.0	.	i	.	0.66
CCCNC(=O)N1CCC(C(=O)c2cccc(F)c2)CC1	1.1	-3.2	4.4	3%	.	.	0.68
CC(C)C[C@H]1CN(CCCC[C@H]2CNC(=O)C(=O)N2CC2CCCCC2)C(=O)C(=O)N1CCC1CCCCC1	-1.1	.	.	.	i	-1.5	.
CC1CCN(C(=O)c2cc(F)c(F)cc2Cl)CC1	-0.2	?	1.7	7%	.	.	0.69
CCN(CC)CCOC(=O)c1ccc(NC(=O)CNC(=O)C2CCCCC2)cc1	-3.6	3.3	-2.1	4%	.	.	0.72
COc1ccccc1CCNC(=O)C1CCC(=O)N(C2CC2)C1 (stereo unspecified)	0.7	9.8	4.6	.	i	-1.5	0.71
CC(C)CC(=O)N(c1ccc(F)cc1)C1C=CS(=O)(=O)C1 (stereo unspecified)	-0.1	-2.0	1.9	69%	i	-12	0.65
OCC[C@@H]1C[C@H](O)[C@@H](O)[C@]2(CCc3ccccc3O2)O1	-2.3	-0.1	1.8	.	i	-4.0	.
Cc1ccc(-n2c(C)nnc2SCC(=O)N2CCc3ccccc3C2)cc1	1.2	-2.0	0.6	.	i	-2.8	0.68
Cc1ccc(C(C)NC(=O)c2cccs2)cc1 (stereo unspecified)	-2.6	3.3	2.7	.	i	-3.3	0.68
CC(=O)Nc1ccc(NC(=O)C(C)c2cccc(C(=O)c3ccccc3)c2)cc1 (stereo unspecified)	-0.3	0.3	3.8	3%	.	.	0.66
CC(=O)Nc1cccc(-c2ccnc3c2CC(C(=O)NCCC(F)(F)F)O3)c1 (stereo unspecified)	3.5	.	.	.	i	-2.9	.
Cc1ccc(CCNC(=O)CSCc2ccc(F)cc2)cc1	-3.9	-0.8	4.2	1%	i	-7.6	0.69
CC(=O)Nc1cccc(NC(=O)c2cccc(Cl)c2)c1	4.6	.	.	.	i	1.7	.
CCOC(=O)c1nnc(-c2ccccc2)nc1N1CCSCC1	5.4	2.0	4.8	21%	i	7.3	0.69
CCc1nnc(NS(=O)(=O)c2ccc(NC(=O)c3cccc([N+](=O)[O-])c3)cc2)s1	0.7	-1.8	5.2	.	i	-2.7	0.67
COc1ccccc1N1CC(C(=O)Nc2ccc(C)c(S(=O)(=O)N3CCOCC3)c2)CC1=O (stereo unspecified)	0.1	.	3.4	.	i	3.4	0.71
O=C(O/N=C1/CCSc2ccccc21)c1ccccc1	-3.5	2.2	.	-1%	.	.	.
Nc1oc2ccc(F)cc2c(=O)c1C=O	5.1	-5.9	-0.7	-1%	.	.	0.69
Cc1ccc(C(=O)O)cc1-c1ccc(/C=C2\SC(=O)N(CC(=O)Nc3ccc4c(c3)OCO4)C2=O)o1	-3.6	6.1	.	.	i	0.0	.
Cc1ccc(S(=O)(=O)Nc2nc(-c3ccc(F)cc3)cs2)cc1	-0.9	1.0	5.4	8%	i	8.5	0.69
Cc1cccc(OCC(=O)NCCCNC(=O)c2cccnc2)c1	0.4	-1.9	0.0	.	i	-1.9	0.7
COCCN(Cc1ccccc1)C(=O)Cc1ccc(OC)c(S(=O)(=O)N2CCOCC2)c1	0.3	-0.6	5.3	-1%	.	-6.3	0.69
COC(=O)c1c(C)[nH]c(C(=O)N2CCN(c3ccc(OC)cc3)CC2)c1C	.	4.1	.	9%	i	8.0	.
CN(C)CCNC(=O)C(=O)Nc1cc2c3c(c1)CCN3C(=O)CC2	-0.6	-0.7	3.0	.	i	-1.7	0.71
CCOC(=O)c1cnc2ccc(C(=O)OC)cc2c1Nc1cccc(C(=O)O)c1	1.1	3.5	12	32%	i	-0.6	0.72
Cn1cccc1/C=C1\SC(=Nc2ccccc2)NC1=O	1.2	12	1.8	-5%	i	-5.1	0.61
Cc1cc(C)n(-c2ccc(Cl)c(C(=O)Nc3ccc(OC(F)(F)F)cc3)n2)n1	-1.7	0.1	2.2	9%	.	.	0.69
O=C(O)c1ccccc1NS(=O)(=O)c1ccc(N/N=C/c2cccc(O)c2O)c([N+](=O)[O-])c1	-23	.	.	.	i	1.1	.
Cc1ccc(CS(=O)(=O)CCC(=O)NCCCN2CCCC2=O)cc1	1.5	5.5	-2.2	0%	.	.	0.7
N/C(=N\OC(=O)c1ccccc1Cl)c1ccccn1	-3.3	-0.1	3.1	-5%	i	-85	0.71
CCOC(=O)C1C(c2ccccc2Cl)NC(=O)N(C)C1(O)C(F)(F)F (stereo unspecified)	0.1	3.5	0.8	6%	i	0.9	0.68

Continued.
SMILES	HNF4A DNA FP	RanGTP-Imp inh	UCH37 inh	Vif A3G	FGF22 binding	MLL AF4-AF9 inh	E coli growth
Cc1noc(C)c1CSCC(=O)N(C)CC(=O)Nc1ccc(F)cc1	2.5	3.5	1.0	-1%	i	-0.6	0.61
COc1cc(OC)c(OC)cc1CN1CCc2ccccc2C1	-3.5	5.2	2.4	-2%	i	-0.6	0.66
C/C(=N\N=C\c1ccccc1)c1nnn(-c2nonc2N)c1C	-1.9	0.1	.	-3%	.	.	.
O=C(CN(CC1CCCO1)C(=O)CCC(=O)Nc1nccs1)NCc1ccccc1 (stereo unspecified)	2.8	0.2	2.4	11%	.	.	0.69
CN1CCN(C(=O)c2cc3nc(-c4ccccc4)cc(-c4ccccc4)n3n2)CC1	2.1	3.3	-13	0%	.	.	0.65
CCc1ccc(CN2CCCC(C(=O)N3CCCCC3)C2)cc1 (stereo unspecified)	-0.5	-0.7	0.6	.	i	-0.7	0.67
O=S(=O)(NC1CCN(Cc2ccccc2)CC1)c1ccc(F)c(F)c1	-1.4	.	.	2%	i	0.3	.
Cc1sc(N(C(=O)CCc2ccccc2)c2ccc(C(=O)O)cc2)nc1-c1ccccc1	-0.5	6.4	1.4	-6%	i	-2.2	0.65
CSC1=NC(C(Cl)(Cl)Cl)N=C(c2ccc(C)cc2)N1 (stereo unspecified)	1.2	3.6	7.2	1%	i	1.2	0.74
O=C(NNC(=S)Nc1ccccc1C(F)(F)F)c1ccc(Br)o1	-1.1	8.1	4.1	26%	i	-1.7	0.66

3 entries already listed, sorted by their value in Vif A3G, largest number first.
Compound,Vif A3G
O=C(CN(CC1CCCO1)C(=O)CCC(=O)Nc1nccs1)NCc1ccccc1 (stereo unspecified),11%
COc1cc(OC)c(OC)cc1CN1CCc2ccccc2C1,-2%
C/C(=N\N=C\c1ccccc1)c1nnn(-c2nonc2N)c1C,-3%

Other compounds
SMILES	HNF4A DNA FP	RanGTP-Imp inh	UCH37 inh	Vif A3G	FGF22 binding	MLL AF4-AF9 inh	E coli growth
CN(C)CCCN(C(=O)COc1ccccc1)c1nc2c(Cl)cccc2s1	5.6	2.7	0.8	1%	i	13	0.69
Cc1ccc(NC(=O)CSC(C)C(=O)OCc2cc(=O)oc3cc(O)ccc23)cc1 (stereo unspecified)	-0.9	.	.	.	i	-5.2	.
CC1CCc2c(ccc3ccccc23)C1=O (stereo unspecified)	-0.8	.	-13	-6%	i	0.9	0.63
COc1ccc(CNC(=O)C2CCN(c3nccs3)CC2)cc1	-0.9	1.8	0.2	-3%	.	.	0.74
O=c1cc(CN2CCN(c3ccccc3)CC2)c2cc(O)c(-c3ccccc3)cc2o1	2.5	3.1	-2.2	0%	.	.	0.82
Cc1ccc(N(CC(=O)N2CCc3ccccc32)C2=NC(=O)CS2)cc1	-0.5	4.6	2.6	25%	.	.	0.71
CC1CCCN(C2=C(NS(=O)(=O)c3ccc(Br)cc3)C(=O)c3ccccc3C2=O)C1 (stereo unspecified)	12	4.7	.	.	i	-8.0	.
Cc1ccnc(SCCn2c(N(C)Cc3ccccc3)nc3c2c(=O)n(C)c(=O)n3C)n1	2.1	-0.2	0.3	.	i	4.0	0.78
Cc1ccc(Cn2nnc(C(=O)Nc3cccc(C)c3C)c2N)cc1	-0.2	7.1	-1.8	5%	.	.	0.68
Fc1ccc(CN2CCCCCC2)c(F)c1	5.0	.	1.8	1%	.	.	0.72
O=C(Nc1nncs1)c1cc2c(s1)CCC2	-0.6	1.1	3.3	-12%	.	-0.6	0.67
COc1ccccc1N1CCN(C(=O)/C=C/c2ccccc2)CC1	-0.7	4.9	3.5	23%	.	.	0.75
Cc1ccc(OCCNC(=O)C(=O)NCc2ccco2)cc1	1.5	.	4.0	-9%	.	-1.0	0.71
COc1cc(C(=O)Cc2nc3ccccc3n2C)cc(OC)c1OC	1.3	4.6	4.2	.	i	15	0.69
O=C(Cc1ccc(F)cc1)Nc1nc(-c2ccc(F)cc2)cs1	-1.2	0.3	0.7	.	i	-3.4	0.67
Cc1cc(C)n2nc(SCC(=O)Nc3ccc(F)cc3)nc2n1	-0.4	2.4	4.3	76%	i	1.0	0.73
Cc1cccc(N(CC(O)CN(C)C)S(=O)(=O)c2ccccc2)c1 (stereo unspecified)	1.4	-1.5	5.4	-4%	.	.	0.7

As entered above:
HNF4A DNA FP, `COc1cc(C(=O)Cc2nc3ccccc3n2C)cc(OC)c1OC` : 1.3
E coli growth, `Cc1cc(C)n2nc(SCC(=O)Nc3ccc(F)cc3)nc2n1` : 0.73

Screens deposited in PubChem BioAssay by several laboratories.
